Screening results deposited in PubChem by Broad Institute.
Vaccinia inh – blocks a specific stage of Vaccinia orthopoxvirus infection, primary screen, cell-based, single point; Vaccinia-infected cells, mCherry/Venus stage reporter fluorescence; active compounds read low; some inactives read as strong as hits; activity change (mCherry), % (test concentration not listed); actives 0.01% (n = 89,000);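 active means mCherry past -33% and 40 or more points under the early reporter, replicates agreeing; inconclusive means past -33% without that gap or agreement; tested in A549 cells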;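 further: scaled between vehicle wells and reference inhibitor wells; 23 nL library stock went into each well; one replicate is shown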
Vaccinia inh Venus – second read-out of Vaccinia inh, no call of its own (marks repeat the call); activity change (Venus), %; measured here: Venus reporter, other viral stage;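 negative = less Venus signal; first of two replicates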
Numbers without * were called inactive; u = inconclusive; x = not tested or not shown. A portion of the library; rates above refer to the full screens.

A first look:
no. | molecule | Vaccinia inh Venus | Vaccinia inh
1 | COc1ccc(CN(C)C[C@H]2OCCCC[C@@H](C)Oc3ccc(NS(=O)(=O)c4ccc(Cl)cc4)cc3C(=O)N([C@@H](C)CO)C[C@H]2C)cc1 | x | u
2 | C[C@@H]1CCCCO[C@@H](CN(C)Cc2ccccc2)[C@H](C)CN([C@@H](C)CO)C(=O)c2cc(NC(=O)C3CCCCC3)ccc2O1 | x | u
3 | N#C[C@H]1[C@H](c2ccccc2C2=CCCCC2)[C@H](CO)N1C(=O)c1ccccn1 | 3 | -2
4 | C[C@@H]1CN([C@@H](C)CO)C(=O)Cc2cc(NC(=O)C3CC3)ccc2O[C@@H]1CN(C)S(=O)(=O)c1cn(C)cn1 | 0 | 6
5 | CCCN(C)C[C@@H]1OCCCC[C@H](C)Oc2ccc(NC(=O)CCC(F)(F)F)cc2C(=O)N([C@@H](C)CO)C[C@@H]1C | -5 | -8
6 | Cc1ccc(-c2ccc(C3[C@H]4CNC[C@@H]3N4S(=O)(=O)c3ccccc3F)cc2)cc1 (stereo partly drawn) | 8 | 9
7 | CC(C)NC(=O)N(C)C[C@H]1Oc2ccc(NC(=O)c3ccncc3)cc2C(=O)N([C@H](C)CO)C[C@H]1C | 8 | 2

The listing, previewed entries included:
no. | molecule | Vaccinia inh Venus | Vaccinia inh
1 | COc1ccc(CN(C)C[C@H]2OCCCC[C@@H](C)Oc3ccc(NS(=O)(=O)c4ccc(Cl)cc4)cc3C(=O)N([C@@H](C)CO)C[C@H]2C)cc1 | x | u
2 | C[C@@H]1CCCCO[C@@H](CN(C)Cc2ccccc2)[C@H](C)CN([C@@H](C)CO)C(=O)c2cc(NC(=O)C3CCCCC3)ccc2O1 | x | u
3 | N#C[C@H]1[C@H](c2ccccc2C2=CCCCC2)[C@H](CO)N1C(=O)c1ccccn1 | 3 | -2
4 | C[C@@H]1CN([C@@H](C)CO)C(=O)Cc2cc(NC(=O)C3CC3)ccc2O[C@@H]1CN(C)S(=O)(=O)c1cn(C)cn1 | 0 | 6
5 | CCCN(C)C[C@@H]1OCCCC[C@H](C)Oc2ccc(NC(=O)CCC(F)(F)F)cc2C(=O)N([C@@H](C)CO)C[C@@H]1C | -5 | -8
6 | Cc1ccc(-c2ccc(C3[C@H]4CNC[C@@H]3N4S(=O)(=O)c3ccccc3F)cc2)cc1 (stereo partly drawn) | 8 | 9
7 | CC(C)NC(=O)N(C)C[C@H]1Oc2ccc(NC(=O)c3ccncc3)cc2C(=O)N([C@H](C)CO)C[C@H]1C | 8 | 2
8 | C[C@@H]1CCCCO[C@H](CN(C)C(=O)Nc2ccc(F)cc2)[C@H](C)CN([C@@H](C)CO)C(=O)c2cc(NS(=O)(=O)c3ccc(Cl)cc3)ccc2O1 | -20 | -12
9 | O=C(CN1CCOCC1)NCC[C@H]1CC[C@H](NS(=O)(=O)c2ccc(F)cc2)[C@H](CO)O1 | -1 | -6
10 | CCC(=O)N1CC2(C1)CN(C(=O)c1ccccn1)[C@@H](CO)c1c2c2ccc(OC)cc2n1C | 17 | 20
11 | COc1ccc(CN(C)C[C@@H]2OCCCC[C@H](C)Oc3ccc(NC(=O)Nc4c(C)noc4C)cc3C(=O)N([C@@H](C)CO)C[C@@H]2C)cc1 | 14 | 17
12 | O=C(C[C@H]1CC[C@H]2[C@@H](COC[C@@H](O)CN2C(=O)c2ccncc2)O1)NCc1cccc(F)c1 | 22 | 10
13 | C[C@H]1CN([C@@H](C)CO)C(=O)c2cccc(NC(=O)Nc3ccc(F)cc3)c2O[C@@H]1CN(C)C(=O)Nc1cccc2ccccc12 | 9 | 2
14 | COc1ccc(S(=O)(=O)N(C)C[C@@H]2OCCCC[C@H](C)Oc3ccc(NC(=O)Nc4c(C)noc4C)cc3C(=O)N([C@H](C)CO)C[C@@H]2C)cc1 | 9 | 10
15 | CC(=O)NC[C@@H]1[C@@H](c2ccc(C#Cc3ccccc3F)cc2)[C@@H](CO)N1C(C)=O | 14 | 1

Going on with the list.
no. | molecule | Vaccinia inh Venus | Vaccinia inh
16 | C[C@H](CO)N1C[C@H](C)[C@@H](CN(C)CC2CC2)Oc2ccc(NC(=O)CCCN(C)C)cc2CC1=O | 2 | 8
17 | C[C@@H]1CN([C@H](C)CO)S(=O)(=O)c2ccc(C#CC3CCCCC3)cc2O[C@@H]1CN(C)Cc1cccnc1 | x | u
18 | COc1cccc(S(=O)(=O)N2C[C@@H](O)COC[C@@H]3O[C@@H](CC(=O)N4CCOCC4)CC[C@H]32)c1 | 3 | 6
19 | CO[C@H]1CN(C)C(=O)c2cc(NS(=O)(=O)c3cccc(F)c3)ccc2OC[C@H](C)N(Cc2cc(F)ccc2F)C[C@H]1C | x | u
20 | Cc1ccc(S(=O)(=O)Nc2ccc3c(c2)C(=O)N([C@H](C)CO)C[C@H](C)[C@H](CN(C)C(=O)Nc2c(C)noc2C)OCCCC[C@H](C)O3)cc1 | 20 | 29
21 | COc1cccc(-c2ccc3c(c2)[C@@H]2[C@@H](CCN2S(=O)(=O)c2ccc(F)cc2)[C@@H](CO)N3C)c1 | x | u
22 | COc1ccc(S(=O)(=O)N(C)C[C@H]2Oc3c(NC(=O)CCCCCC(=O)Nc4ccccc4N)cccc3C(=O)N([C@@H](C)CO)C[C@H]2C)cc1 | -1 | 2
23 | C[C@H](O)C#Cc1ccc2c(c1)O[C@@H](CN(C)C)[C@@H](C)CN([C@H](C)CO)S2(=O)=O | 21 | 37
24 | CO[C@@H]1CN(C)C(=O)c2ccc(NC(=O)c3ccno3)cc2OC[C@H](C)NC[C@H]1C | 26 | 4
25 | C[C@@H]1CCCCO[C@@H](CN(C)Cc2ccncc2)[C@H](C)CN([C@@H](C)CO)C(=O)c2cc(NC(=O)NC3CCCCC3)ccc2O1 | -3 | 1
26 | C[C@H](CO)N1C[C@H](C)[C@@H](CN(C)C(=O)C2CC2)Oc2ncc(C#CCc3ccccc3)cc2C1=O | 9 | 13
27 | C[C@@H]1CN([C@H](C)CO)C(=O)c2cccc(NC(=O)c3nc4ccccc4s3)c2O[C@@H]1CN(C)S(=O)(=O)c1ccccc1 | -14 | -14
28 | COc1cccc(S(=O)(=O)N2C[C@H](O)COC[C@H]3O[C@@H](CC(=O)N4CCOCC4)CC[C@@H]32)c1 | 1 | 1
29 | COCC(=O)Nc1ccc2c(c1)C(=O)N(C)C[C@@H](OC)[C@@H](C)CN(CC1CC1)[C@H](C)CO2 | -1 | -12
30 | CCCC#Cc1ccc2c(c1)O[C@H](CN(C)Cc1cccnc1)[C@H](C)CN([C@H](C)CO)S2(=O)=O | -32 | -30

Remaining list, next part:
no. | molecule | Vaccinia inh Venus | Vaccinia inh
31 | COc1ccc(NC(=O)N(C)C[C@H]2Oc3ccc(N(C)C)cc3C(=O)N([C@@H](C)CO)C[C@H]2C)cc1 | -8 | -8
32 | C[C@@H]1CN([C@@H](C)CO)C(=O)c2cc(-c3ccncc3)cnc2O[C@@H]1CN(C)C(=O)C1CCOCC1 | 15 | 27
33 | O=C(CC(F)(F)F)N1C[C@@H]2[C@H](c3ccccc31)[C@H](CO)N2C(=O)Cc1cccnc1 | 9 | 17
34 | COc1ccccc1-c1ccc([C@H]2[C@@H](CO)N(C(=O)C3CCCC3)[C@H]2C#N)cc1 | 6 | -9
35 | C[C@H](CO)N1C[C@H](C)[C@H](CN(C)C(=O)Nc2cccc3ccccc23)Oc2c(NC(=O)Nc3ccccc3)cccc2C1=O | -19 | -31
36 | C[C@@H]1CN([C@@H](C)CO)C(=O)Cc2cc(NS(=O)(=O)c3ccccc3)ccc2O[C@@H]1CN(C)Cc1ccc2c(c1)OCO2 | 0 | -7
37 | C[C@@H]1CN([C@H](C)CO)C(=O)c2cc(NC(=O)Cc3ccccc3)ccc2O[C@H]1CN(C)Cc1ccc(C(=O)Nc2ccccc2N)cc1 | -3 | 0
38 | O=C(Nc1ccccc1F)N1CC(=O)N2[C@@H](CO)[C@H](c3ccc(-c4ccccc4)cc3)[C@@H]2C1 | -9 | -13
39 | COCC(=O)Nc1ccc2c(c1)OC[C@H](C)N(Cc1ccncc1)C[C@H](C)[C@@H](OC)CN(C)C2=O | 7 | 9
40 | Cc1noc(C)c1NC(=O)Nc1ccc2c(c1)C(=O)N([C@@H](C)CO)C[C@H](C)[C@@H](CN(C)C(=O)C1CCCCC1)OCCCC[C@@H](C)O2 | 12 | 18
41 | C[C@@H]1CCCCO[C@H](CN(C)S(=O)(=O)c2ccc(Cl)cc2)[C@@H](C)CN([C@@H](C)CO)C(=O)c2cc(NS(C)(=O)=O)ccc2O1 | -16 | -31
42 | C[C@H](NC(=O)C[C@H]1CC[C@H](NC(=O)c2cccnc2)[C@@H](CO)O1)c1ccccc1 | 6 | -1
43 | CCS(=O)(=O)N1CCC2(CC1)CN(C(=O)Nc1c(C)noc1C)[C@H](CO)c1[nH]c3cc(OC)ccc3c12 | 2 | 13
44 | COc1ccc(CN(C)C[C@H]2Oc3c(NS(C)(=O)=O)cccc3C(=O)N([C@@H](C)CO)C[C@H]2C)cc1 | 3 | 4
45 | CN(C)CC(=O)N1[C@H](CO)[C@H](c2ccccc2-c2cccc(C(=O)N(C)C)c2)[C@@H]1C#N | 1 | 5

Remaining list, next part.
no. | molecule | Vaccinia inh Venus | Vaccinia inh
46 | O=C(C[C@H]1CC[C@@H](NC(=O)CN2CCOCC2)[C@H](CO)O1)NCCc1ccccc1 | 5 | 11
47 | C[C@@H]1CN([C@@H](C)CO)C(=O)Cc2cc(NC(=O)Nc3ccccc3)ccc2O[C@H]1CN(C)C | 1 | -1
48 | COc1ccc2c3c([nH]c2c1)[C@H](CO)N(C(C)=O)CC31CCN(C(=O)c2ccc3c(c2)OCO3)CC1 | 14 | 16
49 | C[C@H]1CN([C@@H](C)CO)C(=O)c2cccc(NC(=O)Nc3ccc(C(F)(F)F)cc3)c2O[C@H]1CN(C)S(=O)(=O)c1cn(C)cn1 | 0 | -1
50 | O=C(C[C@@H]1CC[C@@H](NC(=O)Nc2cc(F)ccc2F)[C@H](CO)O1)NCc1ccc2c(c1)OCO2 | -5 | -10
51 | CC(=O)N1CC[C@@H]2[C@H]1c1cc(-c3cccc(F)c3)ccc1N(C)[C@@H]2CO | 13 | 15
52 | O=C([C@@H]1N[C@@H]2c3ccc(-c4ccccc4)c(=O)n3C[C@@H]2[C@H]1CO)N1CCOCC1 | -2 | -6
53 | C[C@@H]1CN([C@H](C)CO)C(=O)Cc2cc(NS(=O)(=O)c3ccc(F)cc3)ccc2O[C@@H]1CN(C)Cc1ccc(C(=O)Nc2ccccc2N)cc1 | -16 | -13
54 | COc1ccc(NC(=O)N(C)C[C@H]2Oc3ncc(-c4cccnc4)cc3C(=O)N([C@H](C)CO)C[C@H]2C)cc1 | 8 | 10
55 | C[C@@H]1CN([C@@H](C)CO)C(=O)c2cc(NC(=O)CCCN(C)C)ccc2O[C@@H]1CN(C)Cc1ccc(C(F)(F)F)cc1 | -7 | -5
56 | CNC[C@@H]1Oc2ccc(NS(=O)(=O)c3ccc(OC)cc3)cc2C(=O)N([C@@H](C)CO)C[C@@H]1C | -3 | 1
57 | CCS(=O)(=O)Nc1ccc2c(c1)C(=O)N(C)[C@@H]1CC[C@H](CC(=O)N[C@@H]3CCN(Cc4ccccc4)C3)O[C@H]1CO2 | 15 | 13
58 | C/C=C/c1ccc([C@H]2[C@H](CO)N3C(=O)CN(C(=O)Nc4ccc(F)cc4)C[C@@H]23)cc1 | 2 | -12
59 | CCCNC(=O)N1CC2(CCN(C(=O)c3cccc(F)c3)CC2)c2c([nH]c3cc(OC)ccc23)[C@H]1CO | 0 | 1
60 | COc1ccc(S(=O)(=O)N(C)C[C@@H]2Oc3ccc(NC(=O)NC4CCCCC4)cc3C(=O)N([C@@H](C)CO)C[C@@H]2C)cc1 | x | u

(next part)
no. | molecule | Vaccinia inh Venus | Vaccinia inh
61 | COc1cccc(-c2cnc3c(c2)C(=O)N([C@@H](C)CO)C[C@H](C)[C@@H](CN(C)Cc2ccc(F)cc2)O3)c1 | -16 | -14
62 | C[C@@H]1CN([C@@H](C)CO)C(=O)c2cc(C#CCN(C)C)cnc2O[C@@H]1CN(C)C(=O)c1ccc2c(c1)OCO2 | -3 | -5
63 | C[C@H]1CN([C@@H](C)CO)C(=O)c2cccc(NC(=O)Nc3ccc(C(F)(F)F)cc3)c2O[C@@H]1CN(C)C(=O)Nc1cccc2ccccc12 | x | u
64 | CC(=O)N(C[C@@H]1N[C@@H](CO)[C@@H]1c1ccc(-c2ccccc2)cc1)C(C)C | x | u
65 | C[C@H]1CN([C@@H](C)CO)C(=O)c2cccc(NS(C)(=O)=O)c2O[C@H]1CN(C)C(=O)Nc1ccccc1 | 1 | 3
66 | COc1cccc(-c2ccc3n(c2=O)C[C@@H]2[C@@H](CO)[C@H](C(=O)NCCN4CCCCC4)N(C)[C@H]32)c1 | 4 | 16
67 | O=C([C@@H]1[C@@H](CO)[C@@H]2Cn3c(cccc3=O)[C@H]1N2C(=O)c1ccc(F)cc1)N1CCCCC1 | 7 | 11
68 | C[C@@H]1CN([C@@H](C)CO)C(=O)c2c(c3ccccc3n2C)-c2ccccc2CO[C@@H]1CN(C)Cc1ccc(Oc2ccccc2)cc1 | x | u
69 | COc1ccc(-c2cnc3c(c2)C(=O)N([C@@H](C)CO)C[C@H](C)[C@@H](CN(C)Cc2ccc(C(=O)O)cc2)O3)cc1 | 21 | -4
70 | CC(=O)N(C)C[C@@H]1Oc2cc(C#CC3CCCCC3)ccc2S(=O)(=O)N([C@H](C)CO)C[C@H]1C | -27 | -33
71 | C[C@H]1CN([C@@H](C)CO)C(=O)c2cccc(NS(=O)(=O)c3ccccc3)c2O[C@@H]1CN(C)C(=O)Nc1ccccc1 | 18 | 22
72 | C[C@@H]1CN([C@H](C)CO)S(=O)(=O)c2ccc(C3=CCCCC3)cc2O[C@@H]1CN(C)C(=O)C1CC1 | -21 | -26
73 | COc1ccc(NC(=O)Nc2ccc3c(c2)C(=O)N([C@@H](C)CO)C[C@H](C)[C@@H](CN(C)Cc2ccc4c(c2)OCO4)OCCCC[C@H](C)O3)cc1 | x | u
74 | CCCNC(=O)Nc1ccc2c(c1)C(=O)N(C)[C@@H]1CC[C@H](CC(=O)NCC3CCCCC3)O[C@H]1CO2 | 2 | -2
